Compound activity deposited in PubChem BioAssay by National Center for Advancing Translational Sciences (NCATS).
Menin-MLL FL inh: qHTS Assay for Inhibitors Targeting the Menin-MLL Interaction in MLL Related Leukemias: Competition With Fluorescein Labeled MLL-derived Peptide; Fluorescence polarization, fluorescein-MLL peptide displacement from menin; AID 1766, 2009; 290,000 tested, under 10 active; FP activity change, % at 61.4 µM; inconclusive = falling polarisation curve, or a change in total fluorescence; inactive = total fluorescence flat and polarisation flat or rising; no compound was filed as active; the % refers to the polarisation; negative = inhibition;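 note: % of control where 0% means no effect; inhibitors lower the polarisation; unlabelled MLL peptide was the positive control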
Sfp PPTase inh: qHTS Assay for Inhibitors of Bacillus subtilis Sfp phosphopantetheinyl transferase (PPTase); Potency, µM, for inactives: max response, negative = inhibition, hits mostly inhibitors; 3.5% of 310,000 active; Biochemical Sfp PPTase activity, qHTS; 4'-phosphopantetheinyl transferase ffp (Bacillus subtilis), Q9F4F7; active = well fitted inhibition curve with a large enough effect; inconclusive = small, poorly fitted or top-dose-only effect, or another doubt; inactive = no such curve, though single readings can be large or run the other way;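 note: the enzyme is Sfp with the accession as filed and its product quenches rhodamine fluorescence; potency is the fitted concentration of half-maximal effect; 0% = enzyme reaction without inhibitor and -100% = no enzyme wells; top concentration of the series not given in the record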
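Fluorescence-quenching assay: 15 nM Sfp-PPTase preincubated 15 min at room temperature with compound, then 5 uM rhodamine-CoA and 12.5 uM BHQ-2-labelled YbbR peptide added. Fluorescence (ex 525/em 598 nm) read at start and after 30 min; difference gives rate.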
* marks the source's active call; other numbers are inactive results; ? = inconclusive; & = joins results of further samples; ! = not confirmed by another sample; [ ] = another dose, or the depositor's remark. This is a subset (hit frequency here may not be typical).

SMILES | Menin-MLL FL inh | Sfp PPTase inh
CC(C)[C@@H](CC(=O)N[C@@H]1CCNC[C@H]1C(=O)N[C@H](CC(=O)N[C@@H](CCC(=O)O)CC(=O)O)Cc1c[nH]c2ccccc12)NC(=O)C[C@H](CO)NC(=O)[C@@H]1CNCC[C@H]1N | -0.3 | 6%
CCOC(=O)[C@H](Cc1ccc(O)cc1)NC(=O)c1ccccc1 | ? | 4%
C[C@H]1Cc2c(-c3ccccc3)nc3c(c2CO1)CN(C(=O)C1CC1)CC3 | -2.3[11.7 µM] | 21%
COCC1C2CC[C@H]3C(OCc4ccc(F)cc4C(F)(F)F)OC[C@]4(C)[C@H]3C2=C(CN4C(=O)OC(C)(C)C)[C@H](C)C1COC (stereo partly specified) | -1.2 | 3%
O=C1C2=CC[C@H]3C(=O)N(Cc4ccccc4)C(=O)[C@@H]3[C@@H]2[C@H](O)[C@@H]2O[C@H]12 | -20[11.7 µM] | ?
CS(=O)(=O)c1ccc(Cn2c3c(c4cc(F)cc(F)c42)CCC[C@H]3CC(=O)O)cc1 | ? | -8%
O=C(O)/C=C\c1ccc(Cn2ccnc2)cc1 | -4.7[24.8 µM] | 17%
NC[C@@H]1O[C@H](O[C@@H]2[C@H](O[C@@H]3O[C@H](CO)[C@@H](COC[C@H]4O[C@@H](CN)[C@@H](O)[C@@H](O)[C@@H]4N)[C@@H]3O)[C@@H](O)[C@@H](N)C[C@H]2N)[C@@H](N)[C@H](O)[C@@H]1O | 7.9[24.8 µM] | 20%
O=C(O)C=Cc1ccc(Cn2ccnc2)cc1 | ? | ?
CCC1OC(=O)C(C)[C@@H](O[C@H]2C[C@@](C)(OC)C(O)C(C)O2)C(C)[C@@H](O[C@@H]2OC(C)CC(N(C)C)C2O)[C@@](C)(O)CC(C)C(=O)[C@@H](C)C(O)[C@]1(C)O (stereo partly specified) | -0.3 | 26%
COc1cc2c(cc1OC)C1C(=O)c3c(O)cc4c(c3OC1CO2)C=CC(C)(C)O4 (stereo unspecified) | 3.2 | -42%
COC(=O)C/C=C\[C@H](C)[C@@H](OC)c1ccccc1Br | -3.8[11.7 µM] | -6%
C=CC(C1=CC(=O)C=CC1=O)c1ccc(O)cc1 (stereo unspecified) | -0.1 | ?
O=C(O)C(Cc1ccc2c(c1)oc1ccccc12)NCP(=O)(O)O (stereo unspecified) | ? | -20%
CCCCC/C=C\C/C=C\C/C=C\CCCCC(N)=O | -5.1 | -3%
COC(=O)N1C(c2ccccc2)=Cc2ccccc2C1CC(C)=O (stereo unspecified) | 0.4[11.7 µM] | 3%
NCC1O[C@@H](OC2C(N)C[C@H](N)[C@@H](O[C@H]3OC(CO)C(O)C(N)C3O)C2O)C(O)C(O)C1O (stereo partly specified) | -4.1 | 17%
COC(=O)[C@@H](NC(=O)N1CCc2nc(-c3ccccc3)c3c(c2C1)CO[C@@H](C)C3)C(C)C | -5.5[11.7 µM] | -3%
CCN(Cc1ccncc1)C(=O)[C@@H](CO)c1ccccc1 | -13 | -11%&16%
N[C@](CC1c2ccccc2Oc2ccccc21)(C(=O)O)[C@@H]1C[C@@H]1C(=O)O | ? | -5%
C[C@@H](C(=O)N[C@@H](CO)Cc1ccccc1)[C@H]1C[C@]1(C)[C@H](NC(=O)OCc1ccccc1)c1ccccc1 | 2.4 | 33%[activator]
N[C@H](CCC(=O)NCC(=O)O)C(=O)O | -9.7&24 | -3%&-18%
CCCCC1=CC2=CC(=O)C(C)(OC(=O)CC)C(=O)C2=CN1CCCN(CC)CC (stereo unspecified) | -4.3[11.7 µM] | 7%
CC(C)OC(=O)[C@@H]1CC[C@H](C)[C@@H](CCCCO)O1 | -6.0 | -3%
CCCC/C=C/C(NC(=O)c1cccs1)c1ccccc1 (stereo unspecified) | 0.8 | 11%
COc1cc(/C=C(\C#N)C(N)=O)cc(CSc2nc3ccccc3s2)c1O | ? | -8%&-17%&-13%
CCOC(=O)C(CCc1ccccc1)NC(C)C(=O)N1Cc2cc(OC)c(OC)cc2CC1C(=O)O (stereo unspecified) | 2.5 | 18%
CCC[C@H]1C(=O)N2C(N(C)C)=Nc3ccc(C)cc3N2C1=O | -5.7[24.8 µM] | 10%
Cc1nc2c(c(=O)[nH]1)CSCC2 | -1.2 | -9%
COc1ccc2nc3cc(Cl)ccc3c(NCCCN3CCN(CCCNc4c5ccc(Cl)cc5nc5ccc(OC)cc45)CC3)c2c1 | ? | -16%
O[C@@H]1[C@@H]2c3cc4c(cc3CN3CCC(=C[C@@H]1O)[C@H]23)OCO4 | 0.3[24.8 µM] | 9%
COc1cccc([C@@H]2Oc3ccc(OC)cc3/C(=N/O[C@@H](C)c3cc(-c4c(C)cc(C)cc4C)no3)[C@@H]2O)c1 | -4.4[11.7 µM] | 4%
Fc1ccc(C(c2ccc(F)cc2)N2CCN(C/C=C\c3ccccc3)CC2)cc1 | ? | -1%&8%
COc1cc(C2CC(=O)Oc3c(C(C)C)ccc(C)c32)cc(OC)c1OC (stereo unspecified) | -4.7 | 11%
Cc1c2c(c(O)c3c(O)cccc13)C(=O)O[C@H]2C1C(N(C)C)C(O)=C(C(N)=O)C(=O)[C@H]1O (stereo partly specified) | -0.5 | ?
O=C1CCC=C1C(O)c1ccc2c(c1)OCO2 (stereo unspecified) | 0.7 | 8%
c1ncc(CCCC2CCNCC2)[nH]1 | -2.7 | 27%
CC(=O)c1ccc2c(c1)N(CCCN1CCN(CCO)CC1)c1ccccc1S2 | 7.3 | -9%
O=P(O)(O)OP(=O)(O)OP(=O)(O)O | -1.1 | 8%
CCCn1c(-c2ccc(F)cc2)nc2c(NCCN3CCSCC3)nc(C)nc21 | -12 | 4%
CC1(C)CCC(C)(C)c2cc(NC(=O)c3ccc(C(=O)O)cc3)ccc21 | 0.1 | 1%
COc1cc2c(C(=O)c3ccccc3)c3c4c(cc(OC)c(OC)c4c2cc1OC)CCN3C | 4.8 | -15%
CCc1cccc2c(-c3ccccc3)c3c(nc12)OCC3 | -3.6 | -14%
C[S+](C)CC[C@H](N)C(=O)O | -1.2 | 2%
O=c1ncccn1[C@@H]1O[C@H](CO)[C@@H](O)[C@H]1O | -1.8 | 7%
CC(=O)OC[C@@H]1O[C@@H](O/N=C2/C[C@@H](O)[C@@H](O)[C@@H]3[C@@H]4C(=O)N(C[C@@H]5CCCO5)C(=O)[C@H]4CC[C@@H]23)[C@H](OC(C)=O)[C@H](OC(C)=O)[C@@H]1OC(C)=O | -3.6[11.7 µM] | -7%
CO[C@H]1COC(=O)[C@@H](Cc2ccccc2)NC(=O)[C@@H](C)COC(=O)CCC[C@@H]1C | -1.2[11.7 µM] | 9%
Oc1ccc(-c2c(-c3ccccc3)nn3c(C(F)(F)F)cc(C(F)(F)F)nc23)cc1 | -2.4 | 16%
C[C@@H](O)[C@H]1C(=O)N2C(C(=O)O)=C(S[C@@H]3CN[C@H](C(=O)N(C)C)C3)[C@H](C)[C@H]12 | -0.2[24.8 µM] | -13%
CC(=O)OC[C@@H]1O[C@@H](O/N=C2/C[C@@H](O)[C@@H](O)[C@@H]3[C@H]4C(=O)N(c5ccc(F)cc5F)C(=O)[C@@H]4CC[C@@H]23)[C@H](OC(C)=O)[C@H](OC(C)=O)[C@@H]1OC(C)=O | 3.6[11.7 µM] | 18%
CO[C@@H]1[C@@H]2OP(=O)(O)OC[C@H]2O[C@H]1n1c(Sc2ccc(Cl)cc2)nc2c(N)ncnc21 | 0.7 | 19%
CCCCC/C=C\C/C=C\C/C=C\C/C=C\CCCCCC(=O)O | -0.8 | 11%&2%
C[C@@H]1CC[C@H]2C(=O)O[C@H](CN=[N+]=[N-])CN2[C@@H]1c1ccc(Br)cc1 | -0.8[11.7 µM] | 5%
Cc1noc(C)c1-c1ccc2ncnc(NCc3cccc(Cl)c3)c2c1 | -1.9 | -19%
O=C1[C@H]2[C@H]3[C@H](O)[C@H](O)C/C(=N/OCc4ccccc4)[C@@H]3CC[C@@H]2C(=O)N1c1cccc(Oc2ccccc2)c1 | 0.7[11.7 µM] | 9%
COCOc1cc(OC)ccc1C(=O)/C=C/c1cccc(C(F)(F)F)c1 | 3.9 | -3%
C=CCN1c2ccccc2[C@]23C[C@@H](C(=O)OC)N(S(=O)(=O)c4cccs4)C2=NC(C(=O)OC)=C(C(=O)OC)[C@H]13 | -1.1[11.7 µM] | 4%
O=C(Cl)CCCCCCCC(=O)Cl | 0.6 | -3%
CCC(=O)OCC(=O)[C@@]1(OC(=O)CC)[C@@H](C)C[C@@H]2[C@H]3CCC4=CC(=O)C=C[C@]4(C)[C@@]3(F)[C@@H](O)C[C@@]21C | 4.7 | 9%
CCCCC/C=C\C/C=C\C=C\[C@@H](O)C/C=C\CCCC(=O)O | -2.5 | 8%

Continued:
SMILES | Menin-MLL FL inh | Sfp PPTase inh
CC(C)[N+](C)(C)CC(O)COc1cccc2ccccc12 (stereo unspecified) | 1.0 | -2%
COc1cc(O)c(C(=O)/C=C/c2ccc(O)c(OC)c2)c(OC)c1 | ? | -38%
Cc1c(Cl)cccc1NC(=O)CN1C(=O)CSc2ncccc21 | 4.5 | -6%
COC(=O)NC(c1ccccc1)C(C(=O)OC)C(=O)OC (stereo unspecified) | -0.1[11.7 µM] | 6%
Cc1ccc2nc3nc4ccc[nH]c4cc3c2c1 | 9.8[11.7 µM] | -5%
COC(=O)C1(CC(C)C)C=C2C(=C(C(C)C)C(=O)C2C)CN1 (stereo unspecified) | -11 | 0%
FC(F)(F)c1cc(CO[C@H]2CCCN[C@H]2c2ccccc2)cc(C(F)(F)F)c1 | ? | -17%
C=CCOC(=O)C(C(C)=O)C(NC(=O)OC)c1cccs1 (stereo unspecified) | -1.6[11.7 µM] | 8%
O=C(c1c(O)c2ccc(Cl)cc2[nH]c1=O)C1CC1 | ? | 45µM*!
N=C(N)n1cccn1 | 2.2 | 50µM*
Cc1nc(N=Nc2cc(S(=O)(=O)O)ccc2S(=O)(=O)O)c(COP(=O)(O)O)c(C=O)c1O | ? | -4%
Cc1ccccc1OCC(O)Cn1c(NCCN(C)C)nc2c1c(=O)n(C)c(=O)n2C (stereo unspecified) | 4.5 | 15%
CC(C)[C@@H](CC(=O)N[C@@H]1CCNC[C@H]1C(=O)N[C@H](CC(=O)N[C@@H](CCC(=O)O)CC(=O)O)Cc1ccccc1)NC(=O)C[C@H](Cc1ccccc1)NC(=O)[C@@H]1CNCC[C@H]1N | 1.1 | -11%
CCCCNC(=O)C(c1ccc(OCC(=O)OC)c(C(=O)OC)c1)N(Cc1ccccn1)C(=O)CCCCCN1C(=O)NC(c2ccc(-c3ccccc3)cc2)C(C(=O)OCc2ccccc2)=C1C (stereo unspecified) | -4.4 | 7%
CC(C)C[C@@H](CC(=O)N[C@H](CC(=O)N[C@@H]1CCNC[C@H]1C(=O)N[C@H](CC(=O)N[C@@H](CCC(=O)O)CC(=O)O)Cc1ccccc1)C(C)C)NC(=O)[C@@H]1CCCC[C@H]1N | 9.2 | -13%

Retrieved by structure from the list above, 7 records:
SMILES | Menin-MLL FL inh | Sfp PPTase inh
Cc1ccc2nc3nc4ccc[nH]c4cc3c2c1 | 9.8[11.7 µM] | -5%
COC(=O)NC(c1ccccc1)C(C(=O)OC)C(=O)OC (stereo unspecified) | -0.1[11.7 µM] | 6%
CC(C)C[C@@H](CC(=O)N[C@H](CC(=O)N[C@@H]1CCNC[C@H]1C(=O)N[C@H](CC(=O)N[C@@H](CCC(=O)O)CC(=O)O)Cc1ccccc1)C(C)C)NC(=O)[C@@H]1CCCC[C@H]1N | 9.2 | -13%
COC(=O)C1(CC(C)C)C=C2C(=C(C(C)C)C(=O)C2C)CN1 (stereo unspecified) | -11 | 0%
Cc1nc(N=Nc2cc(S(=O)(=O)O)ccc2S(=O)(=O)O)c(COP(=O)(O)O)c(C=O)c1O | ? | -4%
FC(F)(F)c1cc(CO[C@H]2CCCN[C@H]2c2ccccc2)cc(C(F)(F)F)c1 | ? | -17%
COc1cc(O)c(C(=O)/C=C/c2ccc(O)c(OC)c2)c(OC)c1 | ? | -38%

Next part:
SMILES | Menin-MLL FL inh | Sfp PPTase inh
COc1cc2nccc(Oc3ccc(NC(=O)Nc4ccc(F)cc4F)c(F)c3)c2cc1OC | -7.8 | -6%
O=Cc1ccc(OC2C=CC(C#Cc3ccccc3)OC2CO)cc1 (stereo unspecified) | 5.2[11.7 µM] | -10%
COC(=O)[C@@]1(Cc2ccccc2)[C@H]2c3cc(C(=O)N4CCCC4)[nH]c3C[C@H]2CN1C(=O)c1ccccc1 | -0.5 | 2%
CC(=O)[C@]1(O)CCC2C3C=C(Cl)C4=CC(=O)C5CC5[C@@]4(C)C3CC[C@]21C (stereo partly specified) | 0.5 | 19%
COC(=O)C(C(=O)OC)C1c2ccccc2C=C(C2CC2)N1C(=O)OC (stereo unspecified) | 0.5 | 27%&22%
CC1(OC(=O)c2ccco2)C(=O)C2=COC(C3CC3)=CC2=C(Br)C1=O (stereo unspecified) | 6.1 | -26%
CC(C)c1c(O)c(-c2cc3c(c(C(C)C)c2O)CCC2C(C)(C)CCC[C@@]32C)cc2c1CCC1C(C)(C)CCC[C@@]21C (stereo partly specified) | -1.6 | -1%
